Anaer choline gr: inhibitors of anaerobic choline-dependent gram-negative bacterial growth; AID 1963822; Gram-negative bacterium anaerobic choline minimal medium, absorbance growth; hits give low values; many inactives read as strong as hits in the columns shown; 55,000 tested, 0.2% active; calls only;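 active = growth z-score on choline under -2 at 7 or 20 h with little or no fall on glycerol, limits in tiers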;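 note: stock transfer was 300 nL into about 50 µL; the organism is E. coli; final concentration not given here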
Anaer choline gr early: recorded beside Anaer choline gr, whose call it bears; z-score; measured here: choline growth z-score, timepoint 1;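 score of optical density at 7 h as mean of two plates; lower means less growth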
Numbers without * were called inactive; i = inactive; + = active, no number; & = joins results of further samples. Only part of the results is shown, so the mix of outcomes need not match the whole.

SMILES	Anaer choline gr	Anaer choline gr early
Cc1ccc(-c2csc(Cc3nc(-c4ccc5c(c4)OCO5)no3)n2)cc1	i	1.23
COc1ccc2nc3cc(Cl)ccc3c(Nc3cc(CN4CCCC4)c(O)c(CN4CCCC4)c3)c2n1	i	-0.47
CC1(C)CC(=O)C2=C(C1)N(CC1CCCO1)C(=O)C2(NC(=O)c1ccc(C(C)(C)C)cc1)C(F)(F)F (configuration not stated)	i	0.22
O=C(CSc1nccn2nc(-c3ccccc3)cc12)Nc1ccc2c(c1)OCO2	i	-1.16
CCCOc1ccc2nc(NC(=O)c3sc(COc4cccc(C)c4)nc3C)sc2c1	i	-0.35
O=C(NCCCN1CCC(Cc2ccccc2)CC1)Nc1ccc(F)cc1	i	-1.81
O=C(CSc1ncnc2c(-c3ccccc3)c[nH]c12)Nc1cccc(F)c1	i	1.28
Cc1cc(S(=O)(=O)NCCc2csc3nc(-c4cccc(F)c4)nn23)ccc1F	i	0.39
O=C(NC1CCCCC1)C1CCCN(S(=O)(=O)c2c[nH]c(C(=O)N3CCCC3)c2)C1 (configuration not stated)	i	0.59
Cc1ccc(-c2ccc(=O)n(CCc3nc(-c4ccc5c(c4)OCO5)no3)n2)cc1	i	0.63
CCOC(=O)c1cnc(SC(C)C(=O)Nc2c(C)cc(C)cc2C)nc1N (configuration not stated)	i	0.69
O=C(Nc1nnc(Cc2ccc(Cl)cc2)s1)C1c2ccccc2Oc2ccccc21	i	-0.13
Cc1[nH]c(C)c(S(=O)(=O)N2CCC(C(=O)N3CCN(C4CCCCC4)CC3)CC2)c1C(=O)N1CCCC1	+	-0.98*
O=C(O)CC1CCCc2ccccc2C1O (configuration not stated)	i	-0.08
CC(C)(C)C(=O)N1CCCC(c2ccnc(Nc3cccc(F)c3)n2)C1 (configuration not stated)	i	-0.36
COCC(=O)N1CCCC(C)(C(=O)NCc2ccccc2)C1 (configuration not stated)	i	-0.39
Cc1nnc2sc(-c3ccc(CNC(=O)c4cncc(Br)c4)cc3)nn12	i	2.16
Cc1cccc(CNC2=NCCNC23CCN(S(=O)(=O)c2ccc(C)c(C)c2)CC3)c1	i	-0.47
CC(C)(NC(=O)c1cnccn1)c1nc2c(c(C(N)=O)n1)OCO2	i	-0.66
Cc1ccc(-c2c(C(F)(F)F)nn3c(NCCOCCO)cc(C)nc23)cc1	i	-1.24

Single records, from the list above. Order of screens: Anaer choline gr, Anaer choline gr early
Profile of COc1ccc2nc3cc(Cl)ccc3c(Nc3cc(CN4CCCC4)c(O)c(CN4CCCC4)c3)c2n1 → i, -0.47
Profile of CC(C)(C)C(=O)N1CCCC(c2ccnc(Nc3cccc(F)c3)n2)C1 (configuration not stated) → i, -0.36
Profile of Cc1ccc(-c2c(C(F)(F)F)nn3c(NCCOCCO)cc(C)nc23)cc1 → i, -1.24
Profile of Cc1cccc(CNC2=NCCNC23CCN(S(=O)(=O)c2ccc(C)c(C)c2)CC3)c1 → i, -0.47
Profile of CC1(C)CC(=O)C2=C(C1)N(CC1CCCO1)C(=O)C2(NC(=O)c1ccc(C(C)(C)C)cc1)C(F)(F)F (configuration not stated) → i, 0.22

Other structures follow.
SMILES	Anaer choline gr	Anaer choline gr early
Cc1ccc(-c2cc3n(n2)CCC(=O)N3CC(=O)NCc2ccc3c(c2)OCO3)cc1	i	0.19
Cc1cccc(NC(=O)C2CCCN(c3cnc4ccccc4n3)C2)c1C (configuration not stated)	i	-1.51
CN1CCc2c(sc(NC(=O)C3CC3)c2-c2nc3ccccc3s2)C1	i	-1.05
CCCCN1C(=O)CCc2cc(NC(=O)CN3C(=O)c4ccccc4C3=O)ccc21	i	0.44
Cc1noc(C)c1S(=O)(=O)N1CCC(CC(=O)NCCc2c[nH]c3ccccc23)CC1	i	0.18
Cc1nnc(NC(=O)Cn2cnc3onc(C)c3c2=O)s1	i	-0.36
Cc1nn(-c2cc(N3CCCCC3)ncn2)c(C)c1CCC(=O)NCCC1=CCCCC1	i	0.03
COc1ccc(C(=O)N(Cc2cccnc2)c2nc3ccc(Cl)cc3s2)cc1OC	i	0.46
Cc1ccc2c(CC(=O)Nc3sc4c(c3C(=O)NCC3CCCO3)CCC4)coc2c1 (configuration not stated)	i	-1.73
CCc1ccccc1N1CC(c2nnc(NC(=O)c3ccccc3)s2)CC1=O (configuration not stated)	i	1.06
CC1CCN(C(=O)Cn2c(=O)c3ccccc3n3c(=S)sc(-c4ccccc4)c23)CC1	i	-0.18
CN(C)C(=O)CN1CCN(C2CCCC2)CC1	i	-0.06
CCNC(=O)CN1c2ccc(CC)cc2-c2ccccc2S1(=O)=O	i	0.94
CN1CCN(C(=O)C2CCN(S(=O)(=O)c3cc4c(cc3Cl)NC(=O)CO4)CC2)CC1	i	-1.21
COc1ccc(-c2noc(NCCc3ccc(OC)c(OC)c3)n2)cc1	i	0.12
C=CCn1c(CN(c2ccc(F)cc2)S(C)(=O)=O)nnc1SCC(=O)c1cn(C)c2ccccc12	i	1.14
Cc1ccc(CSc2nnc(-c3ccccc3Cl)o2)cc1	i	1.87
O=S(=O)(c1cc(F)ccc1F)N1CCCC1c1ccc(F)cc1 (configuration not stated)	i	0.2
Cc1ccc(C2=Nc3ccccc3N(CC(=O)NC(C)CCc3ccccc3)C(=O)C2)c(C)c1 (configuration not stated)	i	0.2
O=C(CCC(=O)N1CCc2cc(S(=O)(=O)NC3CC3)ccc21)N1CCCC1	i	-0.27
CC1=C(c2ccc(C(C)C)cc2)S(=O)(=O)N(CC(=O)NCc2ccc(N(C)C)cc2)C1=O	i	1.72
CCOc1ccc(NC(=O)C2CCCN(S(=O)(=O)c3cc(-c4noc(C)n4)ccc3Cl)C2)cc1 (configuration not stated)	i	0.73
COc1ccc(Oc2ncc(-c3ccc(C(=O)NCC(C)C)cc3)cn2)cc1	i	-1.19
CCCCC(C)(C)[C@H](O)/C=C/[C@@H]1[C@@H](C/C=C\CCCC(=O)O)[C@@H](O)C[C@H]1O	i	0.26
Cc1nc2scc(C)n2c(=O)c1NC(=O)c1ccc(Br)cc1	i	-1.35
Cc1ccc(C2=Nc3cccnc3N(CC(=O)NCc3ccc(Cl)cc3)C(=O)C2)cc1C	i	0.09
COc1ccccc1Oc1cc(-c2cccc(C(=O)Nc3ccc(C)cc3)c2)ncn1	i	1.1
O=C(NCCc1c[nH]c2ccc(Cl)cc12)C1CCCN(c2nc3cccnc3s2)C1 (configuration not stated)	i	0.53
O=C(Cn1c(=O)nc(-c2ccccc2)c2ccccc21)NCCc1ccccc1	i	-0.09
O=S(=O)(c1ccc2nc(N3CCCC3)ccc2c1)N1CCOCC1	i	0.01
Cc1nn(-c2ccc3nnc(C)n3n2)c2c1C(c1ccccc1OCc1cccc(Cl)c1)CC(=O)N2 (configuration not stated)	i	0.43
CCC(=O)N1CCc2cc(N3CC(C(=O)N4CCN(C(C)C)CC4)CC3=O)ccc21 (configuration not stated)	i	-1.91
CC1CCN(Cc2nc(-c3ccccc3)no2)CC1	i	-0.32
Cc1cc2c(cc3n2CC(C)(C(=O)NC2CCCCC2)N(Cc2cccc(Br)c2)C3=O)o1 (configuration not stated)	i	0.06
COc1cccc(-c2ccc(=O)n(CCc3nc(-c4cccc(Br)c4)no3)n2)c1	i	-0.77
Nc1ccn([C@H]2CC[C@@H](CO)O2)c(=O)n1	i	0.62&0.45&1.12
COCCNC(=O)CSc1nc(-c2ccc(C(C)C)cc2)no1	i	-0.98
Cn1c(CNC(=O)CSc2nnc(-c3ccc4c(c3)OCO4)o2)nc2ccccc21	i	-0.03
CC(=O)Nc1ccc(NC(=O)CN2C(=O)CCn3nc(-c4cn(C)c5ccccc45)cc32)cc1	i	0.4
CC1(C)CC(=O)C2=C(C1)Nc1ccccc1N(C(=O)NCC1CCCO1)C2c1ccc(F)cc1 (configuration not stated)	i	-0.25
C=Cc1ccc(COc2ccccc2-c2nnc(-c3ccccc3)o2)cc1	i	1.36
Cc1ccc(Cl)cc1NS(=O)(=O)C1CCS(=O)(=O)C1 (configuration not stated)	i	0.22
Cc1nc(-n2[nH]c(C)c(CC(=O)N3CCN(c4ccc(F)cc4)CC3)c2=O)sc1C	i	-0.08
CCCNC(=O)C1CCN(c2ccc(Cl)cc2)C1=O (configuration not stated)	i	-0.79
O=C(CNC(=O)c1ccc(Cl)cc1)OCc1cc(=O)n2ccsc2n1	i	0.74
CN1CC(=O)N/C1=N\C(=O)Nc1cccc(Cl)c1	i	-0.3
CS(=O)(=O)N1CCc2cc(C(=O)Nc3ccc(S(N)(=O)=O)cc3)ccc21	i	0.72
C#CCOc1ccc(C2CC(=O)Nc3c2c(C)nn3-c2nc3ccc(OC)cc3s2)cc1OC (configuration not stated)	i	0.31
Cc1ccc(-n2[nH]c3ncccc3c2=O)cc1	i	-2.1
O=C(c1ccc2c(c1)OCO2)N1CCN(Cc2noc3ccccc23)CC1	i	-0.16
c1ccc2c(c1)nc(N1CCN(C3CCCCC3)CC1)n1cnnc21	i	-0.53
CCC(=O)Nc1ccccc1-c1nnc(SC(CC)C(=O)Nc2ccc(CC)cc2)[nH]c1=O (configuration not stated)	i	0.54
COc1ccc(Cc2nnc3sc(Cc4ccc5c(c4)OCCO5)nn23)cc1	i	0.13
C=CCn1c(=O)c2ccc(C(=O)NC(C)CC)cc2n2c(=O)n(CC(=O)NC(C)C)nc12 (configuration not stated)	i	-0.16
COc1ccc2c(c1)CC(NS(C)(=O)=O)CO2 (configuration not stated)	i	-0.74
Cc1ccc(C2CCCN2S(=O)(=O)c2cnn(C(F)F)c2C)cc1 (configuration not stated)	i	-0.49
CC1=C(C(=O)Nc2ccc(C)cc2C)C(c2ccc(F)c(Br)c2)n2ncc(C(=O)Nc3ccccc3)c2N1 (configuration not stated)	i	0.97
Cc1ccc(C)c(NC(=O)Nc2cccc(CCc3nc4ccccc4n3C)c2)c1	i	1.1
Cc1cc(N2C(=O)CN(S(C)(=O)=O)CC2(C)C(=O)NC2CCCC2)ccc1Br (configuration not stated)	i	0.17
COc1ccc(CNC(=O)C2=C(c3ccccc3)c3cc(Cl)ccc3S(=O)(=O)N2C)cc1	i	0.43

Some of the entries so far, with each value named:
SMILES: CCc1ccccc1N1CC(c2nnc(NC(=O)c3ccccc3)s2)CC1=O (configuration not stated)
  Anaer choline gr: i; Anaer choline gr early: 1.06

SMILES: CC1CCN(C(=O)Cn2c(=O)c3ccccc3n3c(=S)sc(-c4ccccc4)c23)CC1
  Anaer choline gr: i; Anaer choline gr early: -0.18

SMILES: CN(C)C(=O)CN1CCN(C2CCCC2)CC1
  Anaer choline gr: i; Anaer choline gr early: -0.06

(next part)
SMILES	Anaer choline gr	Anaer choline gr early
Cc1ccc(NS(=O)(=O)c2cn(C)c(C)n2)cc1C	i	0.7
O=C(NCc1ccc2c(c1)OCO2)c1ccc(C2Nc3ccccc3S(=O)(=O)N2)cc1 (configuration not stated)	i	0.99
CCOC(=O)C1CCCCN1c1c(-c2ccc(C)cc2)c(=O)c1=O (configuration not stated)	i	-0.69
Cc1ccc(Cl)cc1NC(=O)Nc1cccc(OCc2cc(=O)n3ccccc3n2)c1	i	0.86
COc1cc(=O)n(-c2ccccc2)nc1C(=O)NC(C)(C)C	i	0
O=C(C1Nc2cc(F)ccc2S(=O)(=O)N1)N1CCN(c2ccccc2)CC1 (configuration not stated)	i	-1.29
Cc1ccccc1NC(=O)c1nc2ccccc2n(C)c1=O	i	0.12
Cc1ccc(-c2nc(CSCC(=O)NC(C)C)no2)cc1	i	-0.72
CN1CCCCC1CCN1c2ccccc2Sc2ccc(S(C)=O)cc21 (configuration not stated)	i	0.81&0.41&0.08
O=C(C1CCN(c2nc(-c3ccccc3)no2)CC1)N1CCOCC1	i	0.26
O=c1[nH]cnc2ccccc12	i	0.47
CCN(CC)C(=O)c1ccc(-c2nc3cc(NS(=O)(=O)c4ccc(F)cc4)ccc3n2C)cc1	i	-1.18
CC1C(=O)O[C@H]2C(O)C34C5CC(C(C)(C)C)C36C(O)C(=O)O[C@H]6O[C@]4(C(=O)O5)[C@@]12O (some centres not stated)	i	0.01
COc1ccc(-c2nc(CN3CCN(C(=O)c4ccc(Cl)cc4)CC3)c(C)o2)cc1	i	-1.39
O=C1CSc2ccc(S(=O)(=O)NC3CCCC3)cc2N1	i	-0.17
CCOC(=O)c1[nH]c(C)c(CN(Cc2ccc(OC)cc2)S(=O)(=O)c2ccccc2C)c1C	i	0.42
NS(=O)(=O)c1ccc(NC(=O)C2(c3ccc(Cl)cc3)CCCC2)cc1	i	-0.65
Cc1cccc(NC(=O)c2c(C)cc(C)nc2SCC(=O)NC(C)(C)C)c1	i	1.23
CCn1nc(C)c(CCN(C)C(=O)Nc2ccc(F)cc2F)c1C	i	0.28
CC1CCN(CCNC(=O)c2ccc(Cn3c(SCc4ccccc4)nc4cccnc43)cc2)CC1	i	0.61
Cc1ccc(-n2nnc(C(=O)O)c2C)cc1C	i	0.11
Cc1cn2c(=O)cc(COc3ccc(NC(=O)C(C)(C)C)cc3)nc2s1	i	-0.73
Cn1c(=O)c(C(=O)N2CCN(c3ccccc3)CC2)nc2ccccc21	i	0.18
Cc1noc(-c2ccc(NC(=O)c3ccccc3)cc2)n1	i	-0.33
Cc1ccc(CNC(=O)Cn2ccn3nc(-c4ccc5c(c4)OCO5)cc3c2=O)cc1	i	0.52
CC(Sc1nc2ncccc2[nH]1)C(=O)Nc1ccc(F)cc1 (configuration not stated)	i	-0.26
Cc1noc(C)c1C1CCCN1C(=O)C1CCCC1 (configuration not stated)	i	0.22
CCC(C)NC(=O)c1ccc(-c2cccc(C)c2)nc1 (configuration not stated)	i	-0.73
O=C(CCS(=O)(=O)c1ccccc1)Nc1nc(-c2ccccn2)cs1	i	-0.78
